KAT2A inh: GCN5L2 (KAT2A) acetyltransferase inhibition; Potency, µM (highest dose often 58.9 µM), for the others: at the highest dose activity change, negative = inhibition, most hits filed as inhibitors; 390,000 compounds, 0.21% hits; Q92830; GCN5L2 HAT assay, ThioGlo1 CoA-SH fluorescence
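GCN5L2 (20 nM) in 50mM HEPES pH 7.5, 0.1mM EDTA, 0.01% Tween-20 preincubated 15 min with compounds at room temperature. Reaction started with H3(1-25) 75uM, acetyl-CoA 70uM, ThioGlo1 50uM; CoA-thiol fluorescence (Ex340/Em540) read at 0 and 20 min.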
FEN1 inhibitor: inhibitors of human flap endonuclease 1; Recombinant FEN1 flap cleavage, fluorescence, 15 min; AID 588795; Potency, µM (highest dose often 114 µM), for the others: at the highest dose activity change, negative = inhibition, actives largely listed as inhibitors; 390,000 compounds, 0.35% hits; note: nearly all actives have a fitted effect of over 65% in size
Target sequence (P39748 whole entry, looked up): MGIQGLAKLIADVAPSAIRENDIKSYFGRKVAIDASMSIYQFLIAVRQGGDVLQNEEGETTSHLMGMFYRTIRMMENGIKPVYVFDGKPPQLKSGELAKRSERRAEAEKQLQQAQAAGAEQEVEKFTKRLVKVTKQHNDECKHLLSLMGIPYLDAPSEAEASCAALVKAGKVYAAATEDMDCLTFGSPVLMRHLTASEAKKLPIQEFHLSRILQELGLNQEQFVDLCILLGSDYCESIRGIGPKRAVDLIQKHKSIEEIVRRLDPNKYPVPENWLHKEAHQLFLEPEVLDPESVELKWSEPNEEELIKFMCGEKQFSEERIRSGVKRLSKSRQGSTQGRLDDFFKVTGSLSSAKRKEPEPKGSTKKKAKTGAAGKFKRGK
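Compounds are tested as a concentration series against 10 nM FEN1; after a 15 min room-temperature preincubation, 50 nM substrate starts cleavage, with plate reads at 0 and 15 min. Normalized responses are fitted by a Hill equation.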
Active calls of the source: *; ? = inconclusive; · = no result given; & = joins results of further samples; [ ] = another dose, or the depositor's remark. Calls come from the whole dose curve; as a rule, active = well fitted curve in the direction sought with a large enough effect; inconclusive = small, poorly fitted or top-dose-only effect, or another doubt; inactive = no such curve, though single readings can be large; an effect the other way counts as inactive or inconclusive. % is set by controls: 0 for no effect and ±100 for the full control effect; potency is the fitted concentration of half-maximal effect. Not all compounds are listed; most or all hits stand in other tables.

SMILES	KAT2A inh	FEN1 inhibitor
O=C(O)C1CC(c2ccccc2)=NO1 (configuration not stated)	1%	1%
CCOP(=O)(OCC)c1nc(-c2ccc(Cl)cc2)oc1NCc1ccccc1	-10%	2%
COc1ccc(S(=O)(=O)NCC(c2cccnc2)N2CCN(C)CC2)cc1C (configuration not stated)	-1%	-2%
CCc1ccc(NC(=O)N(CCCOC(C)C)C2CCN(C(C)=O)CC2)cc1	-13%	-12%
COc1cccc(C(=O)Nc2ccc(S(=O)(=O)N3CCCCC3)cc2)c1OC	-9%	27%
Cc1ccccc1Nc1sc(C(=O)c2ccccc2)c(N)c1C(=O)NCc1ccc(Cl)cc1	-12%	-29%
Cc1cc(C)c(NC(=S)N(CCc2ccncc2)C(C)C)c(C)c1	3%	-1%
CC(O)C(C(=O)OCc1ccc([N+](=O)[O-])cc1)N1C(=O)c2ccccc2C1=O (configuration not stated)	0%	6%
CCc1ccccc1NC(=O)CN1CCN(C(=O)C2CCN(C(=O)/C=C/c3ccccc3)CC2)CC1	-4%	15%
O=C1CC(=O)Nc2cc(S(=O)(=O)Nc3ccc(Cl)c(C(F)(F)F)c3)ccc2N1	-1%	-1%
COc1ccc(C2C(C(C)=O)=C(O)C(=O)N2c2cccnc2)c(OC)c1 (configuration not stated)	-5%	-1%
Cc1ccc(N2CC(c3nc4ccccc4[nH]3)CC2=O)c(C)c1 (configuration not stated)	-9%	-2%
CCCCC(=O)NC(NC(=S)N1CCOCC1)C(Cl)(Cl)Cl (configuration not stated)	-6%	-7%
CCSC1=NC2(CCN(C(=O)NC3CCCCC3)CC2)N=C1c1ccc(C)cc1	22%	-11%
CCOc1cccc(C2c3[nH]c4ccccc4c3CCN2C(=O)CCc2ccccc2)c1 (configuration not stated)	-14%	-5%
Cc1ccc(C(=O)Nc2ccc3c(c2)OCO3)cc1NC(=O)c1ccco1	-3%	-11%
O=C(CN1CCCC1)Nc1ccccc1Sc1ccccc1	-3%	8%
COc1ccc(C2NC(=O)N(C)C(C)=C2[N+](=O)[O-])cc1 (configuration not stated)	-16%	-8%
COc1cc([N+](=O)[O-])c(C(=O)N2CCOCC2)c([N+](=O)[O-])c1	0%	-2%
O=C(/C=C\c1ccc2c(c1)OCO2)NC1(C(=O)Nc2ccc3c(c2)OCO3)CCCCC1	-1%	-3%
Cn1nnc2cc(C(=O)N3CCC(c4ccccc4)C3)ccc21 (configuration not stated)	-5%	2%
CCc1c(C)nc2ncnn2c1NC1CCCc2ccccc21 (configuration not stated)	-2%	2%
Cc1cc(NC(=O)CCOc2ccccc2)no1	0%	0%
Cc1nc2nc(C)c(CCC(=O)NCc3ccccc3)c(C)n2n1	-1%	0%
NC(=O)c1c(NC(=O)CSc2nc3c(c(C(F)(F)F)n2)CCc2ccccc2-3)sc2c1CCCC2	-3%	-2%
COc1ccc(-n2c(-c3ccc(Br)cc3)nc(=S)c3c2CCCC3)cc1	55%[activator]	-4%
COc1cccc(CNS(=O)(=O)c2ccc3c(c2)CCN3C(=O)C2CCC2)c1	-2%	-12%
COC(=O)c1ccc(COC(=O)CSCC(=O)Nc2ccc(C)cc2C)cc1	-4%	-4%
COc1ccc(-c2nnc3ccc(SCC(N)=O)nn23)cc1OC	-27%	-8%
COc1cc(C(c2sc3nc(C)nn3c2O)N2CC(C)OC(C)C2)cc(OC)c1OC (configuration not stated)	-10%	-9%
COc1cccc(N2CC(NC(=O)C3CCCC3)CC2=O)c1 (configuration not stated)	4%	-3%
Cc1ccc(N(CC(=O)Nc2cccc(F)c2)S(=O)(=O)c2cccs2)cc1	1%	-11%
O=C1c2cccc(OCC(=O)N3CCCc4ccccc43)c2CCN1Cc1ccc(F)cc1	-4%	-13%
CC(C)C(C(=O)OCC(=O)c1ccc2c(c1)NC(=O)CO2)N1C(=O)c2ccccc2C1=O (configuration not stated)	-4%	-6%
O=C(c1ccc(N2CCOCC2)cc1)N1CCCC(Nc2ccccc2)C1 (configuration not stated)	-2%	-32%
C=CCNC(=O)c1onc(CSc2ccccn2)c1C(=O)NCC=C	-7%	12%
Cc1nc(C)c(-c2ccc(SCC(=O)Nc3ccc(C)c(Cl)c3)nn2)s1	?	-2%
CCCOc1ccc(C(C(=O)OCCN(CC)CC)c2ccccc2)cc1 (configuration not stated)	3%	0%
Cc1nc2cc(-c3cccc(F)c3)nn2c(C)c1CCC(=O)Nc1ccccc1C(N)=O	-4%	-6%
COC(=O)c1ccc(NC(=S)N2CCN(Cc3ccccc3Cl)CC2)cc1	5%	-8%

Entries of single compounds as entered above. Order of values: KAT2A inh | FEN1 inhibitor
CCCOc1ccc(C(C(=O)OCCN(CC)CC)c2ccccc2)cc1 (configuration not stated) in the list: 3% | 0%
O=C(c1ccc(N2CCOCC2)cc1)N1CCCC(Nc2ccccc2)C1 (configuration not stated) in the list: -2% | -32%
O=C1c2cccc(OCC(=O)N3CCCc4ccccc43)c2CCN1Cc1ccc(F)cc1 in the list: -4% | -13%

Next section.
SMILES	KAT2A inh	FEN1 inhibitor
S=C(NCCCN1CCOCC1)Nc1ccc(Cl)cc1Cl	-2%	-2%
CCc1nnc(SCc2ccc(F)cc2Cl)c2cc3sccc3n12	1%	-4%
COc1ccc(Cl)cc1NC(=O)CN(C)C(=O)CCSc1ccc(C)cc1	-9%	-3%
Cc1ccc(N/C(N)=N/c2nc(CSc3ccc(C)cc3)cc(=O)[nH]2)cc1	0%	-6%
CCOc1ccc(N(CC(=O)N2CCc3ccccc32)S(=O)(=O)c2c(C)noc2C)cc1	-3%	-14%
NS(=O)(=O)c1cccc2cccnc12	-7%	-5%
CC(C)N(C(=O)[C@H]1C[C@H](CC(=O)NCCC2=CCCCC2)C(=O)N2CCc3c([nH]c4cc(CCC(=O)N(C)C)ccc34)[C@]12C)C(C)C	2%	-12%
Oc1ccc(C[C@@H]2CNC(=S)N2CCCCC2CCCCC2)cc1	0%	?
O=C(COC(=O)CNC(=O)c1ccccc1F)NC12CC3CC(CC(C3)C1)C2	-3%	-12%
COCCN(C(=O)C1CCN(C(=O)c2ccccc2C)CC1)c1c(N)n(CC(C)C)c(=O)[nH]c1=O	0%	1%
O=C(CN1C(=O)CCC1=O)Nc1nc(-c2ccc(Cl)s2)cs1	-3%	0%
Cc1ccccc1COc1ccc(/C(O)=C2/C(=O)C(=O)N(CCCn3ccnc3)C2c2ccco2)cc1 (configuration not stated)	-9%	-13%
COc1ccccc1CNC(=O)CN(C)S(=O)(=O)c1ccc(F)cc1	0%	5%
COC(=O)c1sccc1Oc1ccc(Cl)cc1N1C(=O)CCC1=O	3%	11%
CC(C)(C)OC(=O)C[C@@H]1C/C=C\C[C@@H](CC(=O)N[C@H](CO)Cc2ccccc2)C(=O)N2CCC[C@H]2COC1=O	-5%	-2%
N#Cc1ccc(OCC(=O)N/N=C/C2CC=CCC2)cc1 (configuration not stated)	-8%	10%
Cc1nc(=O)c(-c2ccccc2)c(C)n1-c1ccc(O)c(C(=O)O)c1	-2%	-2%
CCN(CC)c1ccc(-n2c(C)cc(C=O)c2C)cc1	-4%[0.501 µM]	8%
O=C1CC(c2ccccc2)CC(O)=C1C=Nc1cccc(Cl)c1 (configuration not stated)	-5%	6%
CC1CC(C)(C)NC(=S)N1CCC(=O)N1CCc2ccccc2C1 (configuration not stated)	-4%	-4%
COc1cccc(N(CC(=O)Nc2cccc(N(C)S(C)(=O)=O)c2)S(C)(=O)=O)c1	-4%	-7%
CCNC(=O)C(=O)NCC(c1ccc2c(c1)OCO2)N1CCOCC1 (configuration not stated)	-7%	21%
CCC1=NC(c2ccc(OC)cc2OC)N(O)C1(C)C (configuration not stated)	·	-5%
O=C(Nc1ccc2c(c1)CCC2)C1COc2ccccc2O1 (configuration not stated)	?	0%
Cc1[nH]c2ccccc2c1CCN(Cc1cccs1)C(=S)NC(C)(C)C	-4%	-17%
COc1ccc(CNC(=O)Cn2nc(C)n3cccc3c2=O)cc1	-5%&-7%	-2%&-2%
CCn1nnc(NC(=O)C(C)(c2ccccc2)c2ccccc2)n1	12%	0%
CCN(CCCNC(=O)C1CCN(S(=O)(=O)CC)CC1)c1cccc(C)c1	2%	7%
Cc1ccc(OCC(=O)N2N=C(C(F)(F)F)CC2(O)C(C)(C)C)cc1C (configuration not stated)	1%	-21%
Cc1cc(C)c(C)c(S(=O)(=O)NCCN2CCOCC2)c1C	3%	-2%
CCc1ccc(-c2nc(SCC(=O)c3c(N)n(C)c(=O)n(C)c3=O)n[nH]2)cc1	-7%	5%
O=C(c1ccc2c(c1)CCN2S(=O)(=O)c1ccc(Cl)cc1)N1CCN(c2ccc(F)cc2)CC1	-4%	-10%
COc1ccccc1Nc1nc(N)nc(CN2CCCCCC2)n1	-13%	-2%
O=C(NCc1ccco1)/C(=C\c1cccs1)NC(=O)c1ccsc1	-3%	-1%
CCCOc1ccc(C2c3c(oc4cc(C)c(C)cc4c3=O)C(=O)N2CCCN(C)C)cc1OCC (configuration not stated)	-6%	12%
Cc1ccc2onc(CNC(=O)N(C)Cc3ccccc3)c2c1	-1%	16%
O=C(CN1C(=O)c2ccccc2S1(=O)=O)Nc1cc(S(=O)(=O)N2CCCCC2)ccc1Cl	-6%	2%
O=C(Cn1ncc(N2CCOCC2)c(Cl)c1=O)c1ccc(Cl)cc1	1%	-4%
Cc1cccc(CNc2ncnc3ccc(-c4cccc(NS(C)(=O)=O)c4)cc23)c1	-25%	·
O=C(CSc1n[nH]c(-c2ccccc2)n1)Nc1ccc(F)cc1F	-2%	4%
CN1CCN(S(=O)(=O)CC2(C)C3CCC2(C)C(=O)C3Br)CC1 (configuration not stated)	-4%	12%
CCCN1C(=O)c2cc(C(=O)NCCc3cccc(C)c3)ccc2C1O (configuration not stated)	0%	-6%
N/C(=N\OC(=O)c1cccc(Br)c1)c1ccc([N+](=O)[O-])cc1	-13%	6%
O=C1C=C(c2ccc(-c3ccccc3)cc2)C[C@@H](c2ccc(Cl)cc2)C1	-1%	13%
COC(=O)c1sccc1S(=O)(=O)N1CCN(c2cccc(C)c2)C(C)C1 (configuration not stated)	-6%	-12%
CCc1noc(C)c1C(=O)Nc1cc(S(=O)(=O)N2CCOCC2)ccc1OC(C)C	-7%	-7%
CCOc1ncccc1C(=O)OCC(=O)N1CC(=O)Nc2ccccc21	0%	-1%
N#Cc1c(Cl)cccc1N1CCCC1	-4%	13%
O=C(NCc1cccnc1)c1ccc(CS(=O)(=O)Cc2ccc(Cl)cc2)o1	-4%	-3%
CN(C(=O)c1cnc(N2CCOCC2)c2ccccc12)c1ccccc1F	0%	0%
(further entries)
SMILES	KAT2A inh	FEN1 inhibitor
COC(=O)CCCC1=CC2=CC(=O)C(C)(OC(=O)c3cccs3)C(=O)C2=CN1CCCOC(C)C (configuration not stated)	22%	-21%
COC(=O)c1cc2cc(OC)ccc2n1C	7%	14%
COc1ccc(/C=N/NC(=O)c2cccc(S(=O)(=O)N3CCCC3)c2)cc1O	-6%	-1%
CCOc1ccccc1CNC(=O)c1cc2cc(S(=O)(=O)N3CCCCC3)ccc2n1C	-6%	-18%
COc1ccc(/C=C/C(=O)c2ccc3c(c2)OCO3)cc1OC	-8%	0%
C=CCCCCCCCCC(=O)NN	0%	-2%
COc1ccccc1-c1nc(SCC(=O)N2CCC(C(N)=O)CC2)n[nH]1	-1%	6%
O=C(Cn1cnc2c(OCc3ccccc3)ncnc21)NCC1CCCO1 (configuration not stated)	1%	0%
COc1ccccc1Cc1nc2ccccc2nc1SCC(=O)Nc1ccccc1C(F)(F)F	-3%	10%

Structures listed so far that contain fluorine:
SMILES	KAT2A inh	FEN1 inhibitor
O=C1CC(=O)Nc2cc(S(=O)(=O)Nc3ccc(Cl)c(C(F)(F)F)c3)ccc2N1	-1%	-1%
NC(=O)c1c(NC(=O)CSc2nc3c(c(C(F)(F)F)n2)CCc2ccccc2-3)sc2c1CCCC2	-3%	-2%
Cc1ccc(N(CC(=O)Nc2cccc(F)c2)S(=O)(=O)c2cccs2)cc1	1%	-11%
O=C1c2cccc(OCC(=O)N3CCCc4ccccc43)c2CCN1Cc1ccc(F)cc1	-4%	-13%
Cc1nc2cc(-c3cccc(F)c3)nn2c(C)c1CCC(=O)Nc1ccccc1C(N)=O	-4%	-6%
CCc1nnc(SCc2ccc(F)cc2Cl)c2cc3sccc3n12	1%	-4%
O=C(COC(=O)CNC(=O)c1ccccc1F)NC12CC3CC(CC(C3)C1)C2	-3%	-12%
COc1ccccc1CNC(=O)CN(C)S(=O)(=O)c1ccc(F)cc1	0%	5%
Cc1ccc(OCC(=O)N2N=C(C(F)(F)F)CC2(O)C(C)(C)C)cc1C (configuration not stated)	1%	-21%
O=C(c1ccc2c(c1)CCN2S(=O)(=O)c1ccc(Cl)cc1)N1CCN(c2ccc(F)cc2)CC1	-4%	-10%
O=C(CSc1n[nH]c(-c2ccccc2)n1)Nc1ccc(F)cc1F	-2%	4%
CN(C(=O)c1cnc(N2CCOCC2)c2ccccc12)c1ccccc1F	0%	0%
COc1ccccc1Cc1nc2ccccc2nc1SCC(=O)Nc1ccccc1C(F)(F)F	-3%	10%
